Vaccinia mCherry: vaccinia inhibition (mCherry reporter). 310,000 compounds, 0.63% hits. Vaccinia virus mCherry reporter infection, fluorescence; about a quarter of the inactives have no number. Potency, µM (doses to about 36.5 µM), without a hit: at the highest dose activity change, negative = inhibition, usual class: inhibitors. AID 720579; active = well fitted inhibition curve with a large enough effect; inconclusive = small, poorly fitted or top-dose-only effect; inactive = no such curve, though single readings can be large or run the other way; tested in A549 cells; also: nearly all actives have a fitted effect of over 35% in size; inactives centre near -10
Vaccinia Venus: inhibitors of vaccinia virus (Venus reporter) | 330,000 compounds, 0.46% hits | Vaccinia virus Venus reporter expression, fluorescence | Potency, µM (titrated, usually from 36.5 µM), inactives show at the top dose activity change, negative = inhibition, hits mostly inhibitors; active means well fitted inhibition curve with a large enough effect; inconclusive means small, poorly fitted or top-dose-only effect; inactive means no such curve, though single readings can be large or run the other way; tested in A549 cells; also: nearly all actives have a fitted effect of over 30% in size; inactives centre near -10
Starred values were filed as active, the others as inactive; i = inactive; ? = inconclusive; . = not tested or not shown; [ ] = another dose, or the depositor's remark. % is scaled to controls: 0 for no effect and ±100 for the full control effect; potency is read from the fitted curve at half-maximal effect.

SMILES	Vaccinia mCherry	Vaccinia Venus
CCN(CC(=O)N1CCN(Cc2ccccc2)CC1)S(=O)(=O)c1ccc(F)cc1	i	-14%
Cc1cc(NC(=O)CSc2nnc(C3COc4ccccc4O3)o2)no1 (centres undefined)	.	-9%
Nc1nc(Nc2ccc(Cl)cc2)nc2ccccc12	?	?
CCC(=O)NC(C)C(c1cccs1)N1CCN(c2ccccc2)CC1 (centres undefined)	-4%	-3%
COc1ccc(/C(O)=C2/C(=O)C(=O)N(CCCC(=O)O)C2c2ccc(OC)cc2)cc1 (centres undefined)	-20%	-19%
CCSC1=NCCN1S(=O)(=O)c1ccc2ccccc2c1	-6%	-13%
C=CC[C@H](CC(=O)N(CCO)Cc1ccccc1)C(=O)N[C@H](COC(=O)[C@@H](CC=C)Cc1ccc(F)cc1)C(C)(C)C	-5%	?
Cc1cccc(NC(=O)CCC2CCN(C(=O)c3ccc(C)s3)CC2)c1	-14%	-20%
COc1ccc(N2CC(C(=O)NCCN3C(=O)S/C(=C\c4cccnc4)C3=O)CC2=O)c(OC)c1 (centres undefined)	-12%	-7%
Cc1ccc(S(=O)(=O)Nc2nc(N)n(-c3ccccc3)n2)cc1	i	-3%
Cc1cccn2c(=O)c3cc(C(=O)NCC4CCCO4)c(=N)n(CC4CCCO4)c3nc12 (centres undefined)	i	-5%
CC(=O)NC12CC3CC(C1)CC(C(=O)Nc1nc4c(C)cccc4s1)(C3)C2	0%	-19%
Cc1ccc(N=C2S/C(=C\c3cn(CC(=O)O)c4ccccc34)C(=O)N2C)cc1	-11%	7%
Cc1cc(C)cc(-n2c(SCC(=O)NCC3CCCO3)nc3c([nH]c4ccccc43)c2=O)c1 (centres undefined)	-11%	-10%
COc1c(F)c(F)c(C(=O)Nc2ccccc2N2CCN(C(=O)C(C)C)CC2)c(F)c1F	.	2%
C#CCN(C[C@H]1[C@H](OC(=O)NCc2ccco2)[C@H](OC(=O)NCc2ccco2)C[C@H]2C(=O)N(c3ccccc3)C(=O)[C@@H]12)S(=O)(=O)c1ccc(C)cc1	i	-7%
C#CCNC(=O)C1=C[C@@H](c2ccc3c(c2)OCO3)C[C@@H](OCc2ccc(CO)cc2)O1	-2%	-24%
CSc1nc(C)cc(Nc2c(C)cc(C)cc2C)n1	-6%	-9%
CC1=CC(=C(c2ccc(N)cc2)c2ccc(N)cc2)C=CC1=N	?	?
O=c1c2c(nc3nc[nH]n13)CCC2	.	-1%
O=C(C1=C(O)C(=O)N(Cc2ccccc2)C1c1cccnc1)c1ccco1 (centres undefined)	-5%	2%
c1ccc2[nH]c(CSc3nc4ccccc4s3)nc2c1	.	-23%
COc1ccc(/C=N/S(=O)(=O)c2ccc(C)cc2)cc1	0%	-5%
C(=N\Nc1ccc2ccccc2n1)/c1ccc2c(c1)OCO2	-14%	-15%
CCCNC(=O)CSc1nc2nc(C)c(Cc3ccccc3Cl)c(C)n2n1	-6%	-16%
CC(C)NC(=O)c1onc(CSc2ccc(Cl)cc2)c1C(=O)O	i	-11%
O=C(Nc1cc(-c2nc3ccccc3s2)ccc1Cl)c1ccc2c(c1)OCO2	-17%	-7%
O=[N+]([O-])c1ccc2oc(/C=C/c3ccc(O)cc3)nc2c1	i	-20%
Cc1ccccc1-n1sc2cc(F)ccc2c1=O	-27%	-17%
Cc1sc2ncnc(SCC(=O)Nc3cccc(S(N)(=O)=O)c3)c2c1C	i	-7%
CC1(OC(=O)C2CCCC2)C(=O)C=C2C=C(c3ccsc3)N(CC3CC3)C=C2C1=O (centres undefined)	i	-5%
Fc1ccccc1N1CCN(c2nc(-c3cccs3)nc3ccccc23)CC1	-17%	-11%
CCc1ccc(NC(=O)c2ccc(CN3C(=O)C(C)=C(c4ccc(C)cc4)S3(=O)=O)cc2)cc1	i	-17%
Cc1ccc(NC(=O)CC2Sc3ccccc3NC2=O)c(Br)c1 (centres undefined)	-17%	-23%
CCOC(=O)C(CC)Sc1nc(N)c(NC(=O)c2ccc(OC)c(OC)c2)c(=O)[nH]1 (centres undefined)	-13%	-3%
CCC(=O)OCc1cnc(C)c2oc(=O)c(C(=O)Nc3ccccc3C(F)(F)F)cc12	-19%	-7%
CC(C)C(=O)Nc1cccc(COc2ccc(CN(Cc3ccccc3)C(=O)OC(C)(C)C)cc2)c1	-6%	-26%
CCOCC(=O)Nc1cc(C(=O)NCCc2ccccc2)ccc1Cl	0%	2%
O=C1c2cccnc2C(O)N1Cc1ccc(F)cc1 (centres undefined)	-9%	0%
CCN(CCNC(=O)C1CCCN(S(=O)(=O)CC)C1)c1ccccc1 (centres undefined)	.	-15%
Cn1cccc1-c1cc(C(=O)N/N=C/C=C/c2ccccc2)[nH]n1	?	-11%
O=C(Cc1c(F)cccc1Cl)Nc1ccccc1-c1ccccc1	i	-15%
O=C(CN(Cc1ccccc1)C(=O)CSc1nnc(COc2ccccc2)o1)NC1CCCC1	-8%	-2%
CCN(CC)c1ccc(NS(=O)(=O)c2cc(-c3onc(C)c3C)ccc2OC)c(C)c1	-15%	-13%
COc1cccc2cc(-c3csc(CCn4nc(C)cc4C)n3)c(=O)oc12	-10%	-24%
CCOC(=O)c1c(NC(C)=O)sc2c(OCC(O)CN(CC)CC)c(Br)ccc12 (centres undefined)	-12%	-15%
COc1ccc(-c2ccc3c(N)c(C(=O)NCc4ccc(C)cc4)sc3n2)cc1	?	-25%
CNc1nc(Nc2ccc(Br)cc2)nc(N)c1[N+](=O)[O-]	-13%	-13%
CN(CCO)c1ccc(C(C(=O)c2ccccc2)c2ccc(N(C)CCO)cc2)cc1	-23%	-18%
Cc1cccc(-c2nc3c(cnn3-c3ccccc3)c(=O)n2-c2cccc(Cl)c2)c1	i	-30%
OC[C@@H]1CN(Cc2ccc(Cl)cc2)C[C@H](n2cnc3c(N4CCN(c5ccccc5)CC4)ncnc32)O1	-20%	-28%
Cc1cccc(C)c1OCC(=O)Nc1nc(-c2ccc(Br)cc2)ns1	1%	-9%
CCCCN(C(=O)CCC(=O)O)C1CC(=O)N(c2ccc(OCCC)cc2)C1=O (centres undefined)	.	-11%
O=C(NCc1cc(Cl)cc(Cl)c1)c1ccc2sc([C@H]3C[C@H](O)[C@@H](CO)O3)nc2c1	i	-29%
CCO[C@@H]1OC(C(=O)O)=C[C@H](C2CC2)[C@H]1CCCO	i	-9%
CCOC(=O)c1c(NC(=O)c2cc(C(C)C)on2)sc(C(C)=O)c1C	-11%[7.34 µM]	-9%[7.34 µM]
CC(C)CC(=O)Nc1ncc([N+](=O)[O-])s1	i	-7%
CCCCCCCCCCCCC(NC(C)=O)(C(=O)OCC)C(=O)OCC	i	-9%
O=S(=O)(Cc1ccc(Cl)cc1)CC(O)COCc1ccccc1 (centres undefined)	-1%	-24%
NC(=O)C1CCCN1 (centres undefined)	-10%	-4%

Additional compounds follow.
SMILES	Vaccinia mCherry	Vaccinia Venus
O=C1NC(c2cccs2)Nc2sc3c(c21)CCCC3 (centres undefined)	.	-19%
O=C(NC1CC1)C1CCN(C2CCN(C(=O)CC3=CCCCC3)CC2)CC1	i	0%
Cc1ccc(S(=O)(=O)Nc2cc(=O)[nH]c(SCC(=O)Nc3ccccc3C(F)(F)F)n2)cc1	i	-8%
CC(=O)c1cccc(NC(=O)C2CCCN(S(=O)(=O)c3cccc4nonc34)C2)c1 (centres undefined)	-8%	-9%
COc1cccc2c3c(c(C)nc12)CCN3c1ccccc1	-6%	-10%
COc1cc(C(=O)OC(C)CN2CCN(C)CC2)cc(OC)c1OC (centres undefined)	-6%	-21%
CCOC(=O)C1=C(COC(=O)/C=C/c2cccc(F)c2)NC(=O)NC1C (centres undefined)	i	3%
COCCNC(=O)C1(C)Oc2ccccc2NC1=O (centres undefined)	-13%	-8%
CCOC(=O)c1sc2cccc(F)c2c1S(=O)(=O)NCc1ccccc1Cl	0%	-3%
COC(=O)[C@]1(Cc2ccccc2)N[C@H](CN(C)S(=O)(=O)c2ccc(C(F)(F)F)cc2)[C@@H]2C(=O)N(Cc3ccccc3)C(=O)[C@@H]21	-19%	-5%
CC(C)(C)c1ccc(C(=O)NCC(=O)N/N=C/c2cccnc2)cc1	-12%	-8%
Cc1ccc(C)n1-c1nnc(N2CCCC(C(=O)Nc3ccc(C(C)C)cc3)C2)s1 (centres undefined)	-19%	-9%

15 structures out of the list, sorted by formula weight, smallest number first:
SMILES	Vaccinia mCherry	Vaccinia Venus
O=c1c2c(nc3nc[nH]n13)CCC2	.	-1%
COCCNC(=O)C1(C)Oc2ccccc2NC1=O (centres undefined)	-13%	-8%
CSc1nc(C)cc(Nc2c(C)cc(C)cc2C)n1	-6%	-9%
COc1cccc2c3c(c(C)nc12)CCN3c1ccccc1	-6%	-10%
CCSC1=NCCN1S(=O)(=O)c1ccc2ccccc2c1	-6%	-13%
Cc1ccc(S(=O)(=O)Nc2nc(N)n(-c3ccccc3)n2)cc1	i	-3%
O=S(=O)(Cc1ccc(Cl)cc1)CC(O)COCc1ccccc1 (centres undefined)	-1%	-24%
CCCNC(=O)CSc1nc2nc(C)c(Cc3ccccc3Cl)c(C)n2n1	-6%	-16%
Cc1ccc(N=C2S/C(=C\c3cn(CC(=O)O)c4ccccc34)C(=O)N2C)cc1	-11%	7%
Cc1cccc(-c2nc3c(cnn3-c3ccccc3)c(=O)n2-c2cccc(Cl)c2)c1	i	-30%
C#CCNC(=O)C1=C[C@@H](c2ccc3c(c2)OCO3)C[C@@H](OCc2ccc(CO)cc2)O1	-2%	-24%
CC1(OC(=O)C2CCCC2)C(=O)C=C2C=C(c3ccsc3)N(CC3CC3)C=C2C1=O (centres undefined)	i	-5%
O=C(NCc1cc(Cl)cc(Cl)c1)c1ccc2sc([C@H]3C[C@H](O)[C@@H](CO)O3)nc2c1	i	-29%
CCc1ccc(NC(=O)c2ccc(CN3C(=O)C(C)=C(c4ccc(C)cc4)S3(=O)=O)cc2)cc1	i	-17%
CC(C)C(=O)Nc1cccc(COc2ccc(CN(Cc3ccccc3)C(=O)OC(C)(C)C)cc2)c1	-6%	-26%

The list continues.
SMILES	Vaccinia mCherry	Vaccinia Venus
CNS(=O)(=O)c1cc(-c2nn3c(C)nnc3c3ccccc23)ccc1C	-20%	-20%
CC(C)CNC(=O)C1CCCN1S(=O)(=O)c1ccc(Cl)cc1 (centres undefined)	-4%	-6%
Cc1cccc(N2CCN(C(=O)Nc3cn(CC(C)C)c(=O)c4ccccc34)CC2)c1C	-17%	-5%
COc1ccc2nc(SCC(=O)NCCc3ccccc3)[nH]c2c1	i	-2%
CC(C)CCNC(=S)Nc1ccc(F)cc1	-16%	-18%
NC(=O)NC(=O)CN1C(=O)NC2(CCOc3ccccc32)C1=O (centres undefined)	i	-13%
COc1ccc(-n2nc(C(=O)N3CCN(c4cccc(C(F)(F)F)c4)CC3)c3c4ccccc4n(C)c3c2=O)cc1Cl	-15%	0%
COc1ccccc1S(=O)(=O)CC(O)COc1ccc(C#N)cc1 (centres undefined)	-6%	2%
COc1ccc(/C=C/C(=O)NCCOc2ccccc2OC)cc1	-21%	-10%
O=C(c1ccc(Cl)c(S(=O)(=O)Nc2ccccc2C(=O)N2CCc3ccccc3C2)c1)N1CCc2ccccc2C1	i	-29%
CC(=NCc1ccc2c(c1)OCO2)c1c(O)n(-c2ccccc2)c(=O)[nH]c1=O	-24%	-17%
Cc1ccc(C(=O)N2CCN=C2SCc2ccc([N+](=O)[O-])cc2)cc1C	i	-6%
O=C(OC1CCOC1=O)c1ccc2ncsc2c1 (centres undefined)	-4%	-1%
O=C(CSc1ccc(-c2cccnc2)nn1)Nc1ccc(F)cc1	-4%	-13%
COc1cc2c(cc1/C=C/C(=O)O)OC(C)C2 (centres undefined)	-6%	-2%
CC(=O)Nc1ccc(S(=O)(=O)Nc2nc3ccccc3nc2Nc2ccc(C(=O)O)c(O)c2)cc1	-11%	7%
Cc1ccc(S(=O)(=O)N2CCN(c3nc(-c4cscn4)nc4ccccc34)CC2)cc1	-25%	-23%
COc1ccc(N2CC(C)(C)[C@H](CC(=O)Nc3ccccc3)C2=O)cc1	i	-4%
O=[N+]([O-])c1ccc(NCc2ccc3c(c2)OCO3)cc1	-14%	-13%
CCOc1ccc(-c2nnc3ccc(SCC(=O)N4CCCCC4)nn23)cc1	i	-1%
Cc1cc(C)cc(NC(=O)Cn2cc(C(=O)c3cccs3)c3ccccc32)c1	-9%	-16%
Cc1ccc(-n2c(C)nc3c(cnn3-c3ccccc3)c2=O)cc1	-18%	-15%
Cc1ccc(-c2nc(CCNC(=O)C(=O)Nc3c(C)cccc3C)cs2)cc1	-9%	-11%
O=C(NCC(c1cccnc1)N1CCc2ccccc2C1)C(=O)Nc1ccccc1 (centres undefined)	-14%	-14%
COc1ccccc1N(C)S(=O)(=O)c1ccc(C(=O)N(C)Cc2cccc(F)c2)cc1	-19%	-6%
Cc1ccc(-c2cc(C(=O)NN)n[nH]2)o1	-12%	-18%
Cc1c(C(=O)N2CCC(C)CC2)cccc1[N+](=O)[O-]	i	-5%
CN1CCN(c2nc3c(c(=O)n(C)c(=O)n3C)n2CC(N)=O)CC1	-16%	2%
COc1ccc(CCNc2nc(-c3ccc(F)cc3)cc(C(F)(F)F)n2)cc1OC	-8%	-7%
CC(=O)Nc1ccc(C(=O)OCc2ccc(Cl)c(Cl)c2)cc1	-16%	-15%
Cc1cccc(CN2CCN(CC(=O)NCc3ccc(F)cc3)C2=O)c1	-27%	-8%

Bioassay records (PubChem BioAssay)
